Source: PubChem BioAssay
H5N1 CPE – MDCK cell protection from H5N1 avian flu; cytopathic effect, luminescence, 72 h; hits give high values; no value below 0 was filed and about half of the inactive calls have no number; reference of the scale not given here; hit rate 0.07% among 96,000; inhibition, % at 50 µM; in the data active means inhibition above about 25%
Starred values were filed as active, the others as inactive; i = inactive. A portion of the library; rates above refer to the full screens.

compound	H5N1 CPE
Cn1c(=O)c2c(ncn2CC(=O)Nc2ccccc2N2CCOCC2)n(C)c1=O	3.5
O=C(COC(=O)C12CC3CC(CC(C3)C1)C2)NCCc1ccccc1	3.0
Cc1cccc2cc(/C=N/NC(=O)CN3CCOCC3)c(Cl)nc12	0.1
COC(=O)Nc1nc(-c2ccccc2)c(C(=O)c2ccccc2)s1	i
Cn1c(O)c(C=Nc2ccc(Cl)cc2)c(=O)n(C)c1=O	i
CCOc1cccc(C(=O)Nc2nnc(-c3ccco3)s2)c1	14
COc1ccc(C2CC(C)=NN2C=O)cc1OC (stereo unspecified)	i
CCCCOc1ccc(C2OC34CCCCC3C(C#N)(C#N)C2(C#N)C(=N)O4)cc1 (stereo unspecified)	1.2
Cc1onc(-c2ccccc2)c1-c1n[nH]c(=S)n1-c1ccccc1Cl	i
COc1ccc(C(=O)Sc2ccc(Cl)cc2)cc1OC	0.2
CCOC(=O)c1oc2ccccc2c1N	1.6
Cc1cc(/C=C2\SC(=Nc3ccc(F)cc3)NC2=O)c(C)n1-c1ccc(S(N)(=O)=O)cc1	i
COc1ccc(C2C(C(C)=O)=C(O)C(=O)N2CCc2c[nH]c3ccccc23)cc1OC (stereo unspecified)	i
COC(=O)c1cc(OC)c(OC)cc1N	i
CCCCCCCC(=O)NC(Nc1ccc(S(N)(=O)=O)cc1)C(Cl)(Cl)Cl (stereo unspecified)	i
Cc1cc(N2C(=O)C(O)=C(C(=O)c3cccs3)C2c2cccc(O)c2)no1 (stereo unspecified)	0.3
CC(=O)CSc1nnc(NC(=O)CCc2ccccc2)s1	i
COc1ccc(Cl)cc1S(=O)(=O)N1CCCC1	0.6
Cc1ccc(N2CC(C(=O)N3CCCc4ccccc43)CC2=O)cc1 (stereo unspecified)	0.9
C/C(N)=C(/C#N)C(=O)COC(=O)C(NS(=O)(=O)c1ccc(Cl)cc1)C(C)O (stereo unspecified)	i

Given with each value named: entries from further up.
> COc1ccc(Cl)cc1S(=O)(=O)N1CCCC1
- H5N1 CPE = 0.6
> Cc1ccc(N2CC(C(=O)N3CCCc4ccccc43)CC2=O)cc1 (stereo unspecified)
- H5N1 CPE = 0.9

The results go on.
compound	H5N1 CPE
CCOC(=O)NC(=O)CSc1nc(C)cc(C(F)(F)F)c1C#N	0.9
O=C(CCSc1nnc(-c2ccncc2)o1)Nc1ccc(F)cc1	0.0
Cc1cccc(C)c1NC(=O)CSc1nc(C)c(CC(=O)c2ccc(Br)cc2)c(C)c1C#N	0.9
N#CC(/C(=N/S(=O)(=O)c1cccs1)c1ccccc1)c1nc2ccccc2[nH]1 (stereo unspecified)	0.4
CCOc1ccc(C(Nc2ccc(C)cc2)P2(=O)OCC(C)(C)CO2)cc1 (stereo unspecified)	1.4
COc1cccc(-c2csc3nnc(SCC(=O)NCc4cccs4)n23)c1	1.9
O=C(NCCCCCCNC(=O)OC1CCS(=O)(=O)C1)OC1CCS(=O)(=O)C1 (stereo unspecified)	0.1
CCn1c(SCC(=O)Nc2nnc(C)s2)nc2c(c1=O)SC(C)C2 (stereo unspecified)	1.1
CCOc1ccc(S(=O)(=O)n2ccc(C)n2)c2ccccc12	1.8
COCCCNC(=O)c1cn(Cc2c(F)cccc2Cl)nn1	0.5
CCCCn1nnc(NC(=O)COc2ccc(Cl)c(C)c2)n1	2.2
CC1(C)CC(=O)C(C=NCc2ccc3c(c2)OCO3)=C(O)C1	0.2
CCOC(=O)C1C(=O)NC(N2CCc3ccccc32)=NC1c1ccccc1 (stereo unspecified)	i
CCN1C(=O)/C(=C2\SC(=S)N(c3c(C)n(C)n(-c4ccccc4)c3=O)C2=O)c2ccccc21	0.1
O=C(OCCN1CCOCC1)c1ccc2c(c1)OCCO2	0.5
CCC(=Nc1ccc(N)cc1)C1=C(O)C(C(=O)OC)C(C)(C)CC1=O (stereo unspecified)	i
Cc1cccc2sc(NC(=O)CNS(=O)(=O)c3ccc(Br)s3)nc12	i
Cc1cc(C(=O)OCC(=O)N2CCN(c3ccccc3)CC2)c2ccccc2n1	1.0
Cc1ccc(C2/C(=C(/O)c3ccc(Br)cc3)C(=O)C(=O)N2Cc2ccco2)o1 (stereo unspecified)	i
CC(=O)Nc1ccc(S(=O)(=O)N2CCN(c3cccc(C)c3C)CC2)cc1	i

The results go on:
compound	H5N1 CPE
COc1ccc(N2CCN(Cc3nc4c(c(=O)[nH]c(=O)n4C)n3CC(C)=O)CC2)cc1	i
O=C(O)c1c(NC(=O)c2cccc3ccccc23)sc2c1CCC2	i
c1ccc2c(CN3CCCCCCC3)c[nH]c2c1	i
O=C(NCC(=O)N(c1ccc(F)cc1)C(C(=O)NCC1CCCO1)c1ccccc1)c1ccco1 (stereo unspecified)	0.3
NC(=O)C1CCN(C(=O)c2cc3n(n2)C(C(F)(F)F)CC(c2ccco2)N3)CC1 (stereo unspecified)	1.0
CCOc1ccc(N(CC(=O)NCc2cccs2)S(=O)(=O)c2c(C)noc2C)cc1	0.1
O=C(CN1CCN(Cc2ccccc2Cl)C1=O)NC1CCCCCCC1	i
CCOC(=O)C1=C(Cc2ccc(F)cc2)C(=O)c2ccccc2C1=O	4.1
Cc1cccc(C)c1Nc1nnc(SCc2cc([N+](=O)[O-])cc3c2OCOC3)s1	0.3
Cc1ccc2c(CSc3nc4nc(C)cc(C)n4n3)cc(=O)oc2c1	3.9
Cn1nc(C(=O)Nc2ccc(S(=O)(=O)N3CCCCC3)cc2)ccc1=O	1.3
N=c1n(Cc2ccccc2)c2ccccc2n1CC(O)COc1ccccc1 (stereo unspecified)	i
CC(C)C(c1nnnn1Cc1cccs1)N1CCN(c2ccccc2)CC1 (stereo unspecified)	i
COc1cc(NC(=O)c2cc3ccccc3o2)c(OC)cc1Br	i
CCc1ccc(S(=O)(=O)Nc2c(C)nn(C)c2C)cc1	1.7
CCN(CC(=O)NCc1ccc(F)cc1)CC(O)COCc1cccc(OC)c1 (stereo unspecified)	i
O=C(/C=C/c1ccccc1)N1CCCN(C(=O)/C=C/c2ccccc2)CC1	0.1
CCOC(=O)CCC(=O)Nc1ccccc1C(N)=O	i
CCCCCN1CC(O)=C(c2nc(-c3ccc(Cl)cc3)cs2)C1=N	i
CCOCCCNC(=O)c1c(-c2ccccc2)noc1C	i

Additional structures
compound	H5N1 CPE
CCc1cc(/C(Cc2ccccn2)=N\O)c(O)cc1O	i
CCCNc1nc2c(c(=O)[nH]c(=O)n2C)n1CCc1ccccc1	0.9
Nn1c(SCC(=O)Nc2ccc3c(c2)OCO3)nnc1C1CC1	i
O=C(COC(=O)c1cc(-c2ccc(Cl)s2)nc2ccccc12)NCc1ccco1	i
Nc1c(C(=O)NCc2ccc3c(c2)OCO3)nnn1-c1ccc(OC(F)(F)F)cc1	i
Cc1ccc(OCC(=O)Nc2ccc3c(c2)nc(CCN2CCOCC2)n3C)cc1	i
N#Cc1nc(Cc2cccc3ccccc23)oc1NCc1ccc2c(c1)OCO2	i
COc1ccccc1N(CC(=O)Nc1ccc(F)c(F)c1)S(C)(=O)=O	0.7
O=C(N/N=C/c1ccccn1)C1CC1	i
O=C(CSc1nnc(-c2cccnc2)n1Cc1ccco1)Nc1nc(-c2ccc(F)cc2)cs1	i
CCCc1nc2ccccc2c(=O)n1/N=C/c1c(C)[nH]n(-c2ccc(C)cc2)c1=O	i
CCc1ccc(/C=C/C(=O)C2C(=O)c3ccccc3C2=O)cc1	i
Cc1cc(NC(=O)COC(=O)c2c(C)nn(Cc3ccccc3)c2Cl)no1	i
COc1c[nH]n(C2CCCCC2)c(=O)c1=O	i
O=C(CN(CC1CCCO1)C(=O)CNS(=O)(=O)c1ccc(Cl)cc1)NCCc1ccccc1 (stereo unspecified)	0.1
CCCCCCc1cc2cc(-c3nnc(-c4ccccc4)o3)c(=O)oc2cc1O	i
Cc1cccc(C(=O)OCc2cc3ccccc3[nH]c2=O)c1	5.4
CC(=O)NC(c1ccccc1)c1nc2ccccc2[nH]1 (stereo unspecified)	i
Clc1ccc(-n2ncc3c(NCCCn4ccnc4)ncnc32)cc1	i
COC(=O)c1sc2ccccc2c1N	0.3

(continued)
compound	H5N1 CPE
CCCc1cc(=O)[nH]c(SCC(=O)N2CCN(S(=O)(=O)c3ccc(C)cc3)C2)n1	0.4
COC(=O)CSc1snnc1-c1ccc(Cl)cc1Cl	0.5
COc1ccccc1NC(=O)c1nn(-c2ccccc2)ccc1=O	i
CSc1ccc(C2C(C#N)=C(N)N(c3ccccc3)C3=C2C(=O)CCC3)cc1 (stereo unspecified)	1.3
Cn1c(=O)[nH]c(=O)c2c1nc(N1CCNCC1)n2Cc1cccc2ccccc12	1.0
CCCCNC(=O)CN1CCC2(O)CCCCC2C1c1ccccc1OC (stereo unspecified)	i
COC(=O)c1ccc(CSc2ncnc3ccccc23)o1	4.5
CCOC(=O)c1ccc2nc(NC(NC(C)=O)(C(=O)OC)C(F)(F)F)sc2c1 (stereo unspecified)	i
CCOC(=O)N1CCN(CC(=O)Nc2ccc(C)c(Br)c2)CC1	i
Cc1cccc(NC(=O)CC(C)(C)C)c1	2.4
CCN(C(=O)c1cc2cc3ccc(C)cc3nc2o1)c1ccc(OC)cc1	i
CCN1C(=O)c2cccc3c(S(=O)(=O)NC(Cc4c[nH]c5ccccc45)C(=O)O)ccc1c23 (stereo unspecified)	1.2
CCOC(=O)COn1c(=O)c(-c2ccc(OC)c(OC)c2)[n+]([O-])c2ccccc21	i
Cc1cc(NC2C3CC4CC(C3)CC2C4)n2ncnc2n1 (stereo unspecified)	i
NC(=O)c1cc(N)ccc1N1CCCC1	i
COc1ccc(CCNC(=O)C2CCCN(Cc3nc(-c4cccc(Cl)c4)oc3C)C2)cc1OC (stereo unspecified)	4.0
Cc1ccc(N2C(=O)CC(=O)NC2=O)cc1	i
Cc1ccc(-c2nnc(-n3nnc4ccccc43)c3ccccc23)cc1	0.4
COc1ccc(C2C(C#N)=C(N)N(c3cccnc3)C3=C2C(=O)CCC3)cc1Cn1cc([N+](=O)[O-])cn1 (stereo unspecified)	2.5
CCCCOCC(O)CN1CCN(C(C)=O)CC1 (stereo unspecified)	0.4

Two records picked at random from those above, as already listed:
compound	H5N1 CPE
CCOC(=O)N1CCN(CC(=O)Nc2ccc(C)c(Br)c2)CC1	i
CCN(C(=O)c1cc2cc3ccc(C)cc3nc2o1)c1ccc(OC)cc1	i

Following part
compound	H5N1 CPE
O=C(c1ccc(CNc2c(N3CCOCC3)c(=O)c2=O)cc1)N1CC=C(c2ccccc2)CC1	2.2
COc1ccc(C(=O)CSc2nnc(-c3ccco3)n2C)cc1	0.2
CCN1CCN(Cc2cccc(Oc3ccc(Cl)cc3)c2)CC1	i
CCC(C)N(CCNC(=O)CC1Oc2ccc(C)cc2NC1=O)C1CCCCC1 (stereo unspecified)	i
COC(=O)c1ccc(Oc2nc(C)cc(Oc3ccccc3)n2)cc1	i
CCOC(=O)c1cnc2c(C(=O)OC)cccc2c1NCCN1CCOCC1	3.3
CCn1c(=S)[nH]c2cc(S(=O)(=O)N3CCCCC3)ccc21	i
CNc1nc(SCc2ccc(C)cc2)nc2c1CCCC2	0.6
CCOC(=O)c1[nH]c(C)c(C(=O)NCc2ccc(C)cc2)c1C	i
O=C(CSc1nnc2scc(-c3ccc(F)cc3)n12)NCc1ccco1	3.0
CCC(C)(C)n1nnnc1C(c1cc2cc(C)cc(C)c2[nH]c1=O)N1CCN(Cc2ccc3c(c2)OCO3)CC1 (stereo unspecified)	0.1
COc1ccc(CNC(=O)c2c(C)cc(=O)oc2C)cc1OC	0.5
CC1(C)CC(=O)C(C(=O)/C=C/NCCc2ccccc2)C(=O)C1	3.1
COc1ccc(-n2nnc3c(=O)n(Cc4cccc(C)c4)cnc32)cc1	i
COc1ccc(N2C(=O)C3CCCN3C2c2cccc(OC)c2)cc1 (stereo unspecified)	i
O=C(CSC1=NCCS1)N1CCOCC1	i
CCN(CC)CC(=O)c1c[nH]c2ccc(OC)cc12	i
NC(=O)C1CNc2ccccc2O1 (stereo unspecified)	i
O=[N+]([O-])c1ccc(Cl)c(/C=N/N2CCN(C3c4ccccc4-c4ccccc43)CC2)c1	i
COc1ccc(OC)c(C2=C[N+](=O)C(C)(C)C(C)(C)N2[O-])c1	0.5

Exported field by field: part of the list above
> CCOC(=O)NC(=O)CSc1nc(C)cc(C(F)(F)F)c1C#N
  H5N1 CPE: 0.9

> O=C(CCSc1nnc(-c2ccncc2)o1)Nc1ccc(F)cc1
  H5N1 CPE: 0.0

> Cc1cccc(C)c1NC(=O)CSc1nc(C)c(CC(=O)c2ccc(Br)cc2)c(C)c1C#N
  H5N1 CPE: 0.9

> N#CC(/C(=N/S(=O)(=O)c1cccs1)c1ccccc1)c1nc2ccccc2[nH]1 (stereo unspecified)
  H5N1 CPE: 0.4

Additional results follow:
compound	H5N1 CPE
CCOc1nc(Nc2ccc(F)cc2)nc(N2CCN(c3ccc(OC)cc3)CC2)n1	i
O=C(CN1CCN(c2ccccc2)CC1)Nc1ccc(Oc2ccccc2)cc1	i
Cc1ccc(Cn2ccc(NC(=O)c3cc(-c4ccc(F)cc4)on3)n2)cc1	i
CN1CCc2nc(SCC(=O)Nc3ccc(Cl)cc3)c(C#N)cc2C1	1.5
CCNc1nc(Oc2ccc(=O)n(-c3ccccc3)n2)nc(N2CCOCC2)n1	0.7
Cc1ccc(-c2nnn(CC(=O)N(Cc3ccccc3)C(C(=O)NC3CCCC3)c3ccncc3)n2)o1 (stereo unspecified)	0.2
CC12CN3CC(C)(CN(C1)C3c1ccc3ccccc3c1O)C2=O (stereo unspecified)	i
CCCSc1nc2sc3c(c2c(=O)[nH]1)CCN(Cc1ccccc1)C3	6.9
Cc1ccc(N=Nc2c(C)[nH][nH]c2=O)c(C)c1	i
COCC(=O)Nc1nnc(C2CCCCC2)s1	0.2
Cc1c(NC(=O)CCCOc2ccccc2)cccc1[N+](=O)[O-]	i
